Screens: PubChem BioAssay, National Center for Advancing Translational Sciences (NCATS)
Rango release inh: qHTS Assay for Inhibitors of RanGTP induced Rango (Ran-regulated importin-beta cargo) - Importin beta complex dissociation | Biochemical FRET Rango-importin beta, RanGTP-induced dissociation | Potency, µM (series often up to 46.1 µM), for the others: at the top dose activity change, negative = inhibition | 340,000 tested, 0.071% active | AID 540253, 2011; active means falling FRET ratio curve, often poorly fitted, with flat reads before Ran was added; inconclusive means other falling curves, or compound fluorescence or quenching; inactive means flat or rising ratio curve;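 note: potency is the fitted concentration of half-maximal effect; % of control where 0% means no effect; nearly all actives have a fitted effect of over 45% in size; -100% = wells without RanGTP and RCC1; the record marks most hits as doubtful in a second field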
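Compounds preincubate 5 min with complex of recombinant Rango and importin beta in PBS with 1 mM DTT. Ran (0.6 uM) loaded with 2 mM GTP plus 0.2 uM RCC1 starts dissociation; FRET is recorded 45 min later.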
GLA inh pH 4.5: qHTS Assay for Inhibitors of Human alpha-Galactosidase at pH 4.5. 230,000 tested, under 10 active. AID 1467, 2008. Alpha-galactosidase A (Homo sapiens), P06280. purified enzyme, 4-MU-alpha-Gal fluorescence, pH 4.5. activity change, negative = inhibition, % at 105 µM; inconclusive = small, poorly fitted or top-dose-only inhibition, or a rising curve; inactive = flat fitted curve, though single readings scatter; no compound was filed as active;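 note: 0% = full activity with enzyme and -100% = basal without enzyme; dose as in the result columns while the protocol names 77 µM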
Target sequence (P06280 whole entry, looked up): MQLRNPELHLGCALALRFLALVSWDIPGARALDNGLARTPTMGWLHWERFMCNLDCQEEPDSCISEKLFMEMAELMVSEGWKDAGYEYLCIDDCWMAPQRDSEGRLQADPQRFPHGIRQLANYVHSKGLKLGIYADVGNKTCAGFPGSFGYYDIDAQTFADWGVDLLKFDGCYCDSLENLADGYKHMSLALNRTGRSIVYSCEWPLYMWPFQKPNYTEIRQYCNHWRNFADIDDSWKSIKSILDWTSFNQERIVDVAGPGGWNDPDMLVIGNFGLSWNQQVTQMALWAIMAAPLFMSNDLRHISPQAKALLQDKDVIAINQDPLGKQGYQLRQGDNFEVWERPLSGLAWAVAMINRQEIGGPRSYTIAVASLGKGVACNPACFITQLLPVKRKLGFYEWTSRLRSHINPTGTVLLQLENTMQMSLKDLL
miR-21 FLuc: qHTS Assay for Modulators of miRNAs and/orActivators of miR-21 | HeLa miR-21 FLuc reporter, luciferase, 48 h | Potency, µM (series often up to 38.3 µM), for the others: top-dose reporter change, positive = more light | 340,000 tested, under 10 active | AID 2288, 2010; active = well fitted rising curve with a large enough effect; inconclusive = small, poorly fitted or top-dose-only effect; inactive = no such curve, though single readings can be large or run the other way;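 note: % of control where 0% means no effect; miR-21 action dims this reporter so a rising signal means less miR-21 action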
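Luminescence from a firefly luciferase reporter carrying a miR-21 binding site downstream, stably expressed under a CMV promoter in HeLa cells that make miR-21 endogenously, reports miRNA modulation after 48 h compound exposure up to approximately 40uM final.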
Rango-impB inh: qHTS Assay for Inhibitors of Rango (Ran-regulated importin-beta cargo) - Importin beta complex formation | Importin subunit beta-1 (Homo sapiens), Q14974 | 340,000 tested, 0.031% active | Rango CFP/YFP FRET sensor + importin beta, 45 min | Potency, µM (titrated, usually from 92.2 µM), for the others: at the top dose inhibition of complex formation; active = rising FRET ratio curve, often small or poorly fitted; inconclusive = mostly compound fluorescence or quenching in the first reads; inactive = flat curves in all reads;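 note: potency is the fitted concentration of half-maximal effect; 0% = DMSO wells and 100% = buffer wells lacking importin beta; nearly all actives have a fitted effect of over 15% in size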
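FRET biosensor (snurportin 1 IBB flanked by EYFP and cerulean), 50 nM, with compound 5 min, then 0.125 microM importin beta in PBS, 1 mM DTT, 0.02% Tween-20, 0.1% BSA. CFP/YFP ratio read after 45 min at room temperature; pre-read flags interference.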
* marks the source's active call; other numbers are inactive results; ? = inconclusive; nt = not tested or not shown; & = joins results of further samples. Only part of the results is shown, so the mix of outcomes need not match the whole.

The first three compounds as a preview:
SMILES,Rango release inh,GLA inh pH 4.5,miR-21 FLuc,Rango-impB inh
COCc1cc(C)nc(SCC(=O)Nc2ccccc2C)c1C#N,-17%,7,-2%,-3.9%
CN(C)CC/C=C1\c2ccccc2COc2ccccc21,0%,-4&4&-11&-2,0%,-0.4%
CCC(OC(=O)c1cc2sccc2n1C)C(=O)NCC1CCCO1 (centres undefined),5%,-3,2%,-3.6%

The whole of this part, previewed entries included:
SMILES,Rango release inh,GLA inh pH 4.5,miR-21 FLuc,Rango-impB inh
COCc1cc(C)nc(SCC(=O)Nc2ccccc2C)c1C#N,-17%,7,-2%,-3.9%
CN(C)CC/C=C1\c2ccccc2COc2ccccc21,0%,-4&4&-11&-2,0%,-0.4%
CCC(OC(=O)c1cc2sccc2n1C)C(=O)NCC1CCCO1 (centres undefined),5%,-3,2%,-3.6%
C#CCN(C[C@@H](CC(C)C)NC(=O)OC(C)(C)C)S(=O)(=O)c1ccc(Br)cc1F,-24%,nt,nt,-0.8%
CC(=O)N1CCN(Cc2nc3cc(NC(=O)c4ccccc4)ccc3n2C)CC1,3%,2,-23%,-2.1%
Nc1cc(N)nc(SCCOc2ccccc2)n1,-5%,2,-68%,0.6%
CS(=O)(=O)c1ccccc1C(=O)Nc1ccc(-c2nc3ccccc3[nH]2)cc1,-8%,nt,-43%,-1.3%
COc1ccc(NC(=O)CCNC(=O)c2ccco2)cc1Cl,16%,nt,-1%,5.4%
N#Cc1cc(-c2ccc(Cl)cc2)cnc1Sc1ccccc1,-3%,6,-5%,-2.1%
C=CCNCCCCOc1ccccc1,0%,-9,-12%,0.3%
COc1ccc(C(=O)Nc2nccs2)cc1OC,-4%,3,-19%,-0.4%
O=S(=O)(NCc1cccnc1)c1cc(Cl)ccc1Cl,-24%,1,-6%,1.0%
CCN(CC)C(=O)Cn1cc(C(=O)C(=O)N2CCCc3ccccc32)c2ccccc21,-11%,-24,-2%,-2.2%
CCOC(=O)c1ccc(NS(=O)(=O)N2CCCCCC2)cc1,-2%,-9,-17%,?
COc1ccc(NC(C)=O)cc1NS(=O)(=O)c1cn(C)c(=O)n(C)c1=O,30%,nt,-3%,-9.9%
CCOC(=O)CNc1ncnc2nc[nH]c12,2%,0,-1%,-0.4%
Cc1ccc(C)c(NC(=S)NCc2cccs2)c1,0%,-8,-3%,-4.9%
Nc1ccccc1-c1nnc(SCc2ccccc2Cl)[nH]c1=O,20%,4,-19%,3.4%
Cc1ccc(NC(=O)CSC2=C(C#N)C(c3ccc4c(c3)OCO4)C3=C(CCCC3=O)N2)c(C)c1 (centres undefined),-7%,-19,12%,-0.2%
CC(=O)NNC(=O)CCn1nnc2ccccc21,7%,-16,0%,-1.3%
CCOC(=O)N1CCC(N2CCN(c3ccccc3)CC2)CC1,3%,nt,0%,0.0%
CCOC(=O)c1nnn(-c2nonc2N)c1-c1cccc2ccccc12,-14%,-12,7%,-0.9%
CC(NC(=O)c1ccc(NC(=O)CC2SC(N3CCCC3)=NC2=O)cc1)c1ccccc1 (centres undefined),-12%,nt,nt,-0.4%
CN1CCN(c2ccc(S(=O)(=O)N3CCCCC3)cc2NC(=O)Cc2ccccc2F)CC1,-4%,1,-7%,0.1%
CC(C)[C@H](NC(N)=O)C(=O)Nc1ccc(OCc2ccccc2)cc1,-11%,8,-16%,1.3%
Cc1ccc(N(CC(=O)Nc2ccc3c(c2)OCCO3)S(=O)(=O)c2c(C)noc2C)cc1,-3%,-3,12%,-4.7%
CCN1CCN(c2ccc(S(=O)(=O)N3CCCCC3)cc2NC(=O)COc2ccc(Cl)c(C)c2)CC1,1%,nt,0%,1.5%
CNC(=S)N1CCn2cccc2C1c1cc(OC)c(OC)c(OC)c1 (centres undefined),0%,-2,-9%,1.9%
CSc1ccc(C(=O)C2CCCN(C(=O)c3ccc4c(c3)OCO4)C2)cc1 (centres undefined),0%,nt,-1%,-0.4%
O=C(Nc1ccc(F)cc1F)C1CC(=O)N(Cc2ccccc2)C1 (centres undefined),16%,nt,nt,4.0%
COc1cccc(NC(=O)CSc2nc3c([nH]c4ccccc43)c(=O)n2C)c1,-17%,8,7%,1.4%
CC(C)c1ccc(OCC(=O)N2CCc3ccccc3C2)cc1,14%,nt,-15%,4.0%
O=C1c2ccccc2C(=O)N1CCSc1nc2ccccc2c(=O)n1CCCN1CCOCC1,0%,-5,-1%,-0.7%
COC(C[C@H](O)[C@@H](C)[C@H](O)COCc1ccccc1)OC,0%,-4,-2%,1.0%
Cc1cccc(NC(=O)CNC(=O)CN2C(=O)NC3(CCc4ccccc43)C2=O)c1C (centres undefined),-11%,nt,nt,-0.2%
CCC(=O)N1CCN(c2ccc(NC(=O)c3ccc(-c4ccccc4)cc3)cc2)CC1,nt,1,-3%,nt
CCc1ccc(N(CC(=O)NCC2CCCO2)C(=O)CCC(=O)Nc2nccs2)cc1 (centres undefined),-10%,nt,-2%,0.4%
CCC(=O)Oc1ccc(C2NC(=O)c3ccccc3O2)cc1OC (centres undefined),16%,nt,4%,0.8%
Cc1c(Cl)cccc1N1C(=O)C2ON(c3ccccc3)C(c3cccnc3)C2C1=O (centres undefined),-25%,8,0%,4.2%
CCn1c(CSc2nccn2C)nc2cc(C(=O)O)ccc21,-19%,2,5%,-2.4%
O=C(NCc1ccccc1)c1cnc(Cl)c(Cl)c1,-14%,nt,-6%,0.3%
COc1cccc(NC(=O)C(NCC2CCCCC2)c2ccccc2)c1 (centres undefined),4%,-4,0%,-4.8%
Cc1ccc(-c2cc(C(=O)N3CCN(c4ncccn4)CC3)c3ccccc3n2)cc1,4%,-3,-13%,3.1%
N#Cc1ccccc1NC(=O)COC(=O)c1ccc2c(c1)OCCO2,-8%,2,-11%,5.0%
COc1ccc(OC)c(NC(=O)c2cnn(-c3ccccc3)c2C)c1,-8%,nt,-20%,1.3%

Structures listed so far that have an NH in an aromatic ring, in the order listed:
SMILES,Rango release inh,GLA inh pH 4.5,miR-21 FLuc,Rango-impB inh
CS(=O)(=O)c1ccccc1C(=O)Nc1ccc(-c2nc3ccccc3[nH]2)cc1,-8%,nt,-43%,-1.3%
CCOC(=O)CNc1ncnc2nc[nH]c12,2%,0,-1%,-0.4%
Nc1ccccc1-c1nnc(SCc2ccccc2Cl)[nH]c1=O,20%,4,-19%,3.4%
COc1cccc(NC(=O)CSc2nc3c([nH]c4ccccc43)c(=O)n2C)c1,-17%,8,7%,1.4%

The list continues.
Results follow in this order: Rango release inh, GLA inh pH 4.5, miR-21 FLuc, Rango-impB inh
O=C(O)c1c2c(nc3ccc(S(=O)(=O)N4CCC(C(=O)NCc5ccc(Cl)cc5)CC4)cc13)CCCC2
→ 13%, nt, -3%&3%, -3.8%
C/C(=N\NC(=O)c1ccc2c(c1)OCO2)c1ccc2c(c1)OCO2
→ 1%, ?, -28%, 0.0%
COc1ccccc1CC(=O)N(CCC#N)CCC#N
→ -9%, 8, -6%, -2.3%
CC(=O)c1cc(F)c(N2CCN(C(=O)COc3ccccc3F)CC2)cc1C
→ 1%, -12, -5%, -2.0%
O=C(Nc1ccc2oc(-c3ccncc3)nc2c1)c1c(F)c(F)c(F)c(F)c1F
→ 28%, -9, -9%, -0.3%
CN(C(=O)c1cccc(NC(=O)Cc2cccc(NC(=O)C3CCCN(C(=O)C4CCCCC4)C3)c2)c1)C1CCC1 (centres undefined)
→ 6%, nt, nt, -2.7%
O=C(NC1CCCCC1)C1(c2ccccc2)CC1(Cl)Cl (centres undefined)
→ 11%, -8, 1%, 0.2%
O=C(NCc1cccc(C(F)(F)F)c1)C1CCN(c2ncccn2)CC1
→ 13%, 0, 0%, 0.0%
CCOC(=O)C1CCN(C(=O)/C=C/c2ccccc2)CC1
→ 0%, 1, -49%, -4.1%
CCc1nc2nc(C)c(NS(=O)(=O)c3ccc(CC(C)C)cc3)c(=O)n2[nH]1
→ 30%, nt, 0%, -0.6%
CC(C)c1ccc(C2CC(=O)c3cnc(NC(=O)c4ccco4)nc3C2)cc1 (centres undefined)
→ 5%, nt, -31%, -0.9%
Cc1ccc(S(=O)(=O)NCc2ccc(C(=O)N3CCN(c4ccccn4)CC3)cc2)cc1
→ -12%, -3, 16%, 1.8%
C(=N\n1cnnc1)/c1ccc(OC2CSC2)cc1
→ -1%, 0, -9%, 7.4%
CC(C)=CCc1c(O)cc(O)c2c(=O)c3c(CC=C(C)C)c(O)ccc3oc12
→ 8%, nt, nt, 4.9%
Cc1cc(C)cc(N(C(=O)c2sc(C)nc2C)C(C(=O)NCc2ccco2)c2ccccc2)c1 (centres undefined)
→ -14%, -11, 6%, 0.2%
CC(C)Nc1nc(Cl)nc(NCCOc2ccccc2)n1
→ -12%, 4, -58%, 0.4%
CCN1CCN(C(=O)c2ccc3c(c2)S(=O)(=O)c2ccccc2C3=O)CC1
→ 23%, 3, -8%, 0.4%
CCC(C)Sc1ccc([C@@H]2[C@H]3C(=O)N(CC)C(=O)[C@H]3[C@]3(C(=O)OC)CCCCN23)cc1 (some centres undefined)
→ 1%, nt, nt, ?
O=C(CCS(=O)(=O)c1ccc(Cl)cc1)N1CCN(S(=O)(=O)c2cccs2)CC1
→ 0%, 4, 8%, -0.2%
CC1CCCN(CC(=O)N2c3ccccc3Sc3ccccc32)C1 (centres undefined)
→ 31%, -5, -3%, 1.6%
Cc1nnc(SCC(=O)O)s1
→ 5%, 2, 2%, 1.2%
O=C(Cn1cc(C(F)(F)F)cc(Cl)c1=O)NCc1ccc(F)cc1
→ 5%, nt, -50%, -0.8%
CCN1CCN(C(c2cccs2)C(C)NC(=O)C(=O)N2CCCCC2)CC1 (centres undefined)
→ -14%, nt, 0%, -0.1%
CCN1CCN(CCCNC(=O)c2cc3c(=O)oc4ccc(C)cc4c3s2)CC1
→ 0%, nt, -1%, -1.9%
C/C(=N\NC(N)=O)C1CC(CC(C)C)C(=O)O1 (centres undefined)
→ -1%, 7, 0%, -0.1%
Cc1ccc(N2CC(C(=O)NCCN3CCOCC3)CC2=O)cc1 (centres undefined)
→ -13%, nt, -1%, 2.2%
COc1ccc(Nc2nc(-c3c[nH]c4ccccc34)cs2)cc1
→ 13%, -14, 16%, -3.0%
O=C(N/N=C/c1ccncc1)c1cnccn1
→ 11%, 5, -2%, 0.4%
CCOC(=O)CC1=C(C(=O)OCC)C(c2ccc(OC)cc2OC)C(C#N)=C(N)O1 (centres undefined)
→ -17%, 10, -1%, -1.8%
COc1ccc(-c2nnc(-c3ccc(C)cc3)o2)cc1
→ -1%, nt, -68%, 0.2%
CC1(C)CC(=O)C2=C(C1)OC(N)=C(C#N)C21CCN(Cc2ccccc2)CC1
→ ?, 5, -3%, ?
CCOc1ccc(/C=N/O)cc1
→ 0%, 2, -7%, -1.1%
CCC1C/C(=C/c2cccs2)C(=O)/C(=C/c2cccs2)C1 (centres undefined)
→ -27%, -4, -15%, -4.5%
CC(C)(C)C(=O)NC(=S)NNC(=O)c1ccc(Cl)cc1Cl
→ 6%, 5, 9%, 2.6%
CN(C(=O)COC(=O)Cc1ccc(Cl)cc1)C1CCCCC1
→ 12%, nt, nt, 3.1%

Laid out differently: results already given
| Rango release inh | GLA inh pH 4.5 | miR-21 FLuc | Rango-impB inh | Molecule |
| --- | --- | --- | --- | --- |
| 6% | 5 | 9% | 2.6% | CC(C)(C)C(=O)NC(=S)NNC(=O)c1ccc(Cl)cc1Cl |
| 12% | nt | nt | 3.1% | CN(C(=O)COC(=O)Cc1ccc(Cl)cc1)C1CCCCC1 |
